Assay outcomes deposited in PubChem by Fisher Drug Discovery Resource Center.
NPYLR7 agonist: activates Aedes aegypti NPYLR7 receptor; hit rate 0.15% among 270,000; activation, % at 10 µM; HEK293T NPYLR7/Galpha15, GCaMP6s calcium fluorescence; in the data active means activation above about 40%;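 further: 0% = vehicle and 100% = reference agonist at the receptor; some compounds past the cut are filed as inactive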
NPYLR7 agonist max-min: further read-out of NPYLR7 agonist, marked with its call; activation, %; measured here: Max-Min RFU normalised activation; some inactives read as strong as hits;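 span of the calcium signal over five minutes; 0% = vehicle and 100% = native peptide agonist; compound fluorescence can raise it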
* hit, by the source's call; & = joins results of further samples.

SMILES	NPYLR7 agonist	NPYLR7 agonist max-min
COc1ccc(C(=O)O)cc1-c1cccc(C(C)N(C)C)c1 (centres undefined)	0	-7
CN1C(C)(C)CCCC1(C)C	-6&21&-8	-6&12&-10
Cc1nc2c(c(N3CCC(C)CC3)n1)CN(C(=O)c1ccc(Br)cc1)CC2	11	13
C=C(C)COc1ccc(-c2[nH]ncc2-c2ccc(OC)c(OC)c2)c(O)c1	1	-4
CCc1cc(NC2CCS(=O)(=O)C2)nc(N2CCCCC2)n1 (centres undefined)	-1	-4
Cc1ccc(NCCNS(=O)(=O)c2c(C)noc2C)nn1	-13	-21
CCN1CCN(C(=O)CCC2CCN(C(=O)C3=CCCCC3)CC2)CC1	2	-3
CN1CCN(n2c3c(c(SCc4cccc([N+](=O)[O-])c4)nc2=O)CCC3)CC1	-3	-5
Clc1cccc(-c2ccc(C3NCCc4[nH]cnc43)o2)c1Cl (centres undefined)	15	9
FC(F)(F)c1cc(-c2cccs2)nc2ncnn12	95*	96*
CC(C)(C)OC(=O)N(Cc1ccc(F)cc1)C1CCC(C(=O)N2CCOC(COCc3ccccc3F)C2)CC1 (centres undefined)	7	6
COc1ccccc1-c1nc2cc(C)ccn2c1NC(=O)COc1ccc(Cl)cc1	-3	1
O=C(c1cc(-c2ccco2)[nH]n1)N1CCCCCC1	3	1
Cc1ccc(C)c(Cn2c(=O)c3c(nc4n(C(C)C)c(C)c(C)n34)n(C)c2=O)c1	-1	2
CC1(C(=O)NS(=O)(=O)Cc2ccccc2)CCN1C(=O)C1CC1 (centres undefined)	0	1
CC(C)(C)c1ccc(C(=O)N2CCC3(CC2)CNC(=O)C3C(=O)O)cc1 (centres undefined)	27	35
Cc1ccc(NC(=O)N(C)C2CCS(=O)CC2)cc1Cl (centres undefined)	-3	-3
CC1(C(=O)NCc2ccc3c(c2)OCO3)CCN1C(=O)CCc1cccs1 (centres undefined)	-2	-3
O=C1OC(c2ccccc2Br)=NC1=Cc1ccc2ccccc2c1	-1	5
CCC(C)N(Cc1cc(NC(=O)c2cccc(F)c2)ccc1N(C)C)C(=O)c1cccs1 (centres undefined)	-4	7
O=C(N=C1N=C2C=CC(Br)=CN2Cc2ccccc21)c1ccc(Br)o1	-3	-2
O=C(COc1ccccc1)Nc1cccc(-c2cccc(-c3ccc4c(c3)OCCO4)n2)c1	27	16
COc1ccc(CC(=O)Nc2c(C)nc3c(C)cccn3c2=O)cc1	3	0
O=C(c1cnccn1)N1CCc2[nH]c3c(Cl)cc(Cl)cc3c2C1	3	7
Cc1ccc(S(=O)(=O)N2CCC[C@@H]2C(=O)NCCNC(=O)c2ccc(F)cc2)cc1	5	17

Part of the list above in order of molecular weight, falling:
SMILES	NPYLR7 agonist	NPYLR7 agonist max-min
CCC(C)N(Cc1cc(NC(=O)c2cccc(F)c2)ccc1N(C)C)C(=O)c1cccs1 (centres undefined)	-4	7
O=C(COc1ccccc1)Nc1cccc(-c2cccc(-c3ccc4c(c3)OCCO4)n2)c1	27	16
COc1ccccc1-c1nc2cc(C)ccn2c1NC(=O)COc1ccc(Cl)cc1	-3	1
CN1CCN(n2c3c(c(SCc4cccc([N+](=O)[O-])c4)nc2=O)CCC3)CC1	-3	-5
Cc1ccc(C)c(Cn2c(=O)c3c(nc4n(C(C)C)c(C)c(C)n34)n(C)c2=O)c1	-1	2
C=C(C)COc1ccc(-c2[nH]ncc2-c2ccc(OC)c(OC)c2)c(O)c1	1	-4
CCN1CCN(C(=O)CCC2CCN(C(=O)C3=CCCCC3)CC2)CC1	2	-3
CC(C)(C)c1ccc(C(=O)N2CCC3(CC2)CNC(=O)C3C(=O)O)cc1 (centres undefined)	27	35
O=C(c1cnccn1)N1CCc2[nH]c3c(Cl)cc(Cl)cc3c2C1	3	7
COc1ccc(CC(=O)Nc2c(C)nc3c(C)cccn3c2=O)cc1	3	0
CC1(C(=O)NS(=O)(=O)Cc2ccccc2)CCN1C(=O)C1CC1 (centres undefined)	0	1
CCc1cc(NC2CCS(=O)(=O)C2)nc(N2CCCCC2)n1 (centres undefined)	-1	-4
COc1ccc(C(=O)O)cc1-c1cccc(C(C)N(C)C)c1 (centres undefined)	0	-7
FC(F)(F)c1cc(-c2cccs2)nc2ncnn12	95*	96*
O=C(c1cc(-c2ccco2)[nH]n1)N1CCCCCC1	3	1

(next part)
SMILES	NPYLR7 agonist	NPYLR7 agonist max-min
CCc1nc2ccc(C(=O)N(C)CCCN(C)C)cn2c1N(C)C(=O)C1CCCCC1	-4	-10
CCCCCCc1nc(C(N)=O)c2[nH]c(=O)n(-c3ccc(OC)cc3OC)c2n1	-2	-3
CN1CCc2cc(C(CNC(=O)c3cccs3)N3CCOCC3)ccc21 (centres undefined)	7	3
Cc1ccc(NC(=O)c2ccc(S(=O)(=O)NC3CC3)cc2)c(Cl)c1	7	7
CCn1c(C2CCCNC2)nn(Cc2cc(-c3cccnc3)no2)c1=O (centres undefined)	-1	-3
Cc1nn(C2CCS(=O)(=O)C2)c2nc(-c3cccs3)cc(C(=O)NC3CCCCC3)c12 (centres undefined)	2	5
Cc1nc(C)n(CCN(C)Cc2ccc(Br)s2)n1	2	1
Cc1cc(C)cc(COC(=O)C2=Cc3ccccc3OC2)c1	4	5
COCCn1c(SCc2ccc(Cl)cc2)nc2c1c(=O)[nH]c(=O)n2C	-6	10
CCOC(=O)C1=C(C)N(C)C(=S)NC1c1cccc(NC(=O)Cc2ccc(F)cc2)c1 (centres undefined)	1	9
O=C(c1cc(F)cc(F)c1)N1CCN(CCCOC(c2ccc(Cl)cc2)c2ccc(Cl)cc2)CC1	3	0
COC(=O)c1c(OC)cc2c(c1C)Oc1c(Cl)c(OC(C)=O)c(Cl)c(C)c1C(=O)O2	-5	-11
O=c1cc(-c2ccccc2)n2c(SC/C=C/c3ccccc3)nnc2[nH]1	-7	-3
CCOC(=O)C1CCN(CC(=O)N2N=C(c3cccc(OC)c3)CC2c2ccc(Cl)cc2)CC1 (centres undefined)	18	9
COC(=O)C1=C(C)NC2=C(C(=O)CC(c3ccccc3)C2)C1c1cc(OC)ccc1OC (centres undefined)	-5	-9
CCCCOCCOCC(=O)N1CCC(n2cnc3cc(C(F)(F)F)ccc32)CC1	-4	-8
COc1ccc(F)cc1CSCC(=O)NC1(C#N)CCCC1	10	7
CCOc1cc(CO)ccc1OCCOc1cccc(Br)c1	5	2
CNC(=O)c1ccc(CN(C)c2cc(C(F)(F)F)nc3ccccc23)o1	-1	0
COCCn1c(C(=O)Nc2ccc(Cl)cc2)cc2c(=O)n(C)c(=O)n(C)c21	-1	-2
CC(C(=O)Nc1cc(Cl)cc(Cl)c1)N1CCOCC1 (centres undefined)	8	6
CCN(CC)S(=O)(=O)c1cc([N+](=O)[O-])ccc1NN=C(C)C(C)C	1	-1
O=C(NCc1nc(C2CCCCC2)no1)c1cccc(-n2cnnc2)c1	9	8
COc1ccc(-c2ccc(N3CCC(C(=O)Nc4ncccc4C)CC3)nn2)cc1	-9	-14
CC(C)c1nc(COc2cccc(-n3cnnn3)c2)n(-c2ccccn2)n1	15	8
Following part
SMILES	NPYLR7 agonist	NPYLR7 agonist max-min
CCc1nn(CC(=O)NCCN(CC)CC)c(=O)c2cc3occc3n12	0	-2
O=S(=O)(NCCc1csc2nc(-c3ccc(Cl)cc3)nn12)c1ccc2ccccc2c1	-17	-15
Cc1c(CC(C)(C)C(=O)O)n(Cc2ccc(Cl)cc2)c2ccc(F)cc12	6	-5
O=C(c1ccc(F)cc1C(F)(F)F)N1CCCN(c2nc3ccccc3nc2-c2ccccc2)CC1	4	1
CCc1nc(C)cc(N2CCN(C3CCN(C(=O)C(C)C)CC3)CC2)n1	3	-2
COc1cc(Cl)ccc1S(=O)(=O)N1CCC(Cc2ccc3c(c2)OCO3)CC1	2	4
CN(CCC(O)c1ccccc1)C(=O)C1=CC(=O)CC(C)(C)O1 (centres undefined)	1	-3
CC1CN(S(=O)(=O)NCCc2ccccc2)CC(C)O1 (centres undefined)	6	5
O=C(O)c1cc(S(=O)(=O)Nc2ccc3nc(N4CCCC4)sc3c2)ccc1Br	0	12
CCc1cc(CN(C)CCn2c(=O)oc3ccccc32)on1	4	1
O=C(CN(C(=O)Nc1ccccc1Br)C1CC1)N(CCc1c[nH]c2ccccc12)Cc1ccc(C(F)(F)F)cc1	19	13
COCCCNc1cccc2c1C(=O)c1cccc(NCCCOC)c1C2=O	-4	-6
CCOC(=O)c1c(C)c(C(=O)NCCCOC)c(C)n1C	9	16
COc1cccc2ccc(CN(C)Cc3nc(-c4ccccc4NC(=O)c4ccsc4)oc3C)nc12	3	1
COC1CCN(C(=O)COc2ccccc2)CC(=O)N(C)c2ccccc21 (centres undefined)	-1	10
O=C(/C=C/c1ccccc1)OC1C(C2COC3(CCCCC3)O2)OC2OC3(CCCCC3)OC21 (centres undefined)	-5	-14
COc1ccc(-n2c(C)cc(C(=O)N3CCC(C)CC3)c2C)cc1	-4	-5
CC(=O)Nc1ccc(C(=O)NC(C)CN2CCCCC2)cc1 (centres undefined)	20	15
C[Se]CC[C@H](N)C(=O)O	-6	-1
O=C(CNC(=O)c1ccco1)N=Nc1c(O)n(Cc2ccccc2)c2ccccc12	0	-5
COCCN(Cc1nc(C(=O)N(CCN(C)C)Cc2ccccc2)cs1)C(=O)Nc1ccc(Cl)cc1	12	16
Cc1ccn2c(=O)nc(SCCC3OCCO3)nc2c1	2	0
O=C(/C=C/c1ccc([N+](=O)[O-])cc1)N1CCN(c2nc(Cc3ccc(F)cc3)ns2)CC1	-2	2
Cc1ccc(CNC(=O)CSc2nc(=O)n(CCO)c3c2CCC3)cc1	-4	-14
CNC(=O)c1ccc(C(=O)NC(C)(COC)C(F)(F)F)cn1 (centres undefined)	4	8
(cont.)
SMILES	NPYLR7 agonist	NPYLR7 agonist max-min
O=C(N[C@H]1CCCCNC1=O)c1csc(CSc2nnc(-c3ccccc3Cl)n2-c2ccccc2Cl)n1	-1	2
O=C(NCCC1=CCCCC1)c1ccc(SCc2ccccc2)nc1	26	11
CCN1CCC(N2CCC(C(=O)Nc3cccc(-c4cccc(Cl)c4)c3)CC2)CC1	-1	-4
Cc1ccc(CNC(=O)CSc2nc3c(c(=O)n2-c2cc(C)cc(C)c2)SCC3)cc1	-3	-8
CCN1CCCC1CNC(=O)C1C2C=CC3(CN(Cc4cc(OC)c(OC)c(OC)c4)C(=O)C13)O2 (centres undefined)	1	4
COc1ccc(OCC(=O)Nc2c(C(C)=O)oc3ccccc23)c([N+](=O)[O-])c1	9	13
CNC(=O)C1CCCN(C(=O)Nc2ccccc2-c2cccs2)C1 (centres undefined)	4	2
CN1CCN(C(=O)CN2C(=O)c3ccccc3C2=O)C(c2ccccc2)C1 (centres undefined)	0	-2
COc1cccc(OCc2ccccc2)c1C(=O)NCCCCc1ccccc1	10	4
Brc1cccc(C2CC(c3ccccc3)=Nc3ncnn32)c1 (centres undefined)	21	29
CCOC(=O)Cn1c(=NC(=O)c2ccc(C(C)=O)cc2)sc2c(C)cc(C)cc21	1	1
O[C@H]1CO[C@H]2CC[C@@H](NCc3ccccc3-c3ccccc3)[C@@H]1C2	1	10
CCS(=O)(=O)c1ccc2oc(-c3cc(NC(=O)c4ccccc4C)ccc3Cl)nc2c1	2	9
CCCC1C=CCN1c1ncnc2sc3c(c12)CCNC3 (centres undefined)	4	6
COc1ccccc1/C=C/C(=O)c1cc(Br)ccc1OC(=O)N1CCOCC1	3	7
OCC1CCCN1c1cc(N2CCc3ccccc3C2)ncn1 (centres undefined)	-1	-1
O=C1CS/C(=N\N=C/c2ccccc2OS(=O)(=O)c2ccc(Cl)cc2)N1	15	8
CC(C)CC(NS(=O)(=O)c1ccc2[nH]c(=O)[nH]c(=O)c2c1)c1ccccc1 (centres undefined)	-1	-11
Cc1cc(C)[n+]2oc(C)cc2n1	-12	-21
CCC(NC(=O)N1c2cc(C)c(C)cc2C(C)=CC1(C)C)N1C(=O)C2CCCCC2C1=O (centres undefined)	3	3
CC1CCN(c2onc(-c3ccccc3)c2CN(Cc2ccco2)C(=O)Nc2cccc(Cl)c2)CC1	3	5
Cn1c(SCc2ccc(C(F)(F)F)cc2)n[nH]c1=O	-3	-5
CC1(C(=O)NS(=O)(=O)c2cccc(Cl)c2)CCN1C(=O)CC1CCCC1 (centres undefined)	-4	-11
C=CCOC(=O)C1C(C)=NC2=C(C(=O)CCC2)C1c1cc2c(cc1Cl)OCO2 (centres undefined)	6	7
COc1cc(OC)cc(C(=O)N2CCN(C(C(=O)N3CCc4ccccc4C3)C3CCCC3)CC2)c1 (centres undefined)	-5	-3
The results go on:
SMILES	NPYLR7 agonist	NPYLR7 agonist max-min
COc1ccc(CN2CCCCC2c2ccccn2)cc1Cn1cccn1 (centres undefined)	22	14
Cc1ccc(O)c(CN(C)Cc2ccc(-n3cccn3)cc2)c1	9	7
O=C(NCc1ccncc1)C(C1CCCC1)N1CCN(C(=O)c2cccc(Br)c2)CC1 (centres undefined)	-6	7
O=C(CCOc1ccccc1)N1CC(c2ccncc2)C1	7	14
CCn1cc2nc(OC)c(CNC(=O)C3CCCN(C)C3)cc2c1O (centres undefined)	4	-3
CCOC(=O)c1cc(C#N)c(C)nc1N1CCN(Cc2ccccc2-c2ccccc2)CC1	6	3
COc1ccc(CCN(C)C(=O)C(CC(C)C)NC(=O)c2ccccc2)cc1OC (centres undefined)	-6	-11
O=C(Nc1nncs1)c1cn(-c2ccccc2Br)nn1	5	3
Cc1c2c(n(Cc3cccc(F)c3)c1C(=O)NC1CC1)CCCC2	33	30
O=C(Nc1cccc(-c2ccco2)c1)C1CCN(Cc2ccccc2OC(F)F)CC1	2	-1
Cc1sc(NC(=O)c2ccc([N+](=O)[O-])o2)c(-c2nc3ccccc3s2)c1C	17	13
CCN(CC)C(=O)CN(c1ccc(C)cc1)S(=O)(=O)c1ccc(OC)c(OC)c1	-1	-1
CC1(C)ON=C(c2ccc3c(c2)OCO3)N(Cc2ccccc2)C1=O	4	3
COc1cn(CC(=O)Nc2ccc(C)cc2C)c(CSc2nc(C)cc(C)n2)cc1=O	-3	-11
CC1(Cc2cc(Cl)ccc2C(F)(F)F)C(=O)Nc2ccc(-c3cccc(C(F)(F)F)c3)cc21 (centres undefined)	-2	7
COc1cc(C)nc(Nc2nc(C)c3cc(C)ccc3n2)n1	-3	-11

The list is partial (hit frequency here may not be typical).
